Vif TR-FRET: inhibitors of Vif binding to APOBEC3G peptide, primary screen, biochemical, TR-FRET, GST-Vif 1-94, biotin-A3G peptide, dose response retest (AID 1117319). TR-FRET GST-Vif / biotin-A3G peptide binding; higher % means a stronger effect; test concentration not given here; strong numbers were not always called active. inhibition, %; hits with a dose series show IC50 in µM. actives 0.57% (n = 260,000);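 active = above the screen mean plus three standard deviations and confirmed in dose response; inconclusive = results disagree or hit not tested in dose response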;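 note: Vif residues 1-94 fused to GST binding biotinylated APOBEC3G peptide 110-148; 0% = full assay without inhibitor and 100% = GST in place of GST-Vif; retest series ran down from 100 µM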
E coli growth: inhibitors of Escherichia coli growth; actives 0.21% (n = 330,000); AID 1053175; OD600 absorbance (concentration not given with the values); OD600, 23 h; active compounds read low;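 active = OD600 absorbance below the run mean of sample wells minus 3.6 SD, in any replicate, cut at about 0.56 in these data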;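 note: stock transfer was 300 nL into about 60 µL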
HNF4A DNA FP: change in binding of human HNF4 alpha to DNA. actives 0.3% (n = 360,000). P41235. AID 1224865. HNF4a-FITC DNA binding, fluorescence polarization, 1 h. activity change, % at 10 µM; in the data active = activity change above about 30%, passing the limit was not always enough;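 note: controls were the assay level and a saturating level of protein; the project sought stronger binding though the title names inhibitors; some compounds called inactive have numbers as strong as hits; positive values seem to mean higher polarization but the record does not say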
UCH37 DUB inh: human UCH37 deubiquitinating enzyme inhibition. purified proteasome/UCH37, Ub-AMC cleavage fluorescence. actives 0.33% (n = 330,000). Q9Y5K5. inhibition, % (concentration not given with the values). AID 588478;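 active = mean of two replicates above 20%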;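 note: 0% = compound-free wells with enzyme and 100% = wells lacking proteasome; stock transfer was 100 nL into about 20 µL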
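System: Proteasome-associated human UCH37 deubiquitinase; Input: 0.15 nM proteasome in added enzyme buffer; Also added: Ub-AMC substrate from 1 µM stock; Incubation: 30 min compound-proteasome preincubation then 25 min substrate reaction, room temperature; Detection: fluorescence, ex 355 nm, em 460 nm; Read-out: % inhibition of Ub-AMC cleavage fluorescence; Benchmarks: no-proteasome and no-compound wells.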
B2AR ag: agonists of human beta-2 adrenergic receptor inducing internalization | actives 0.43% (n = 340,000) | P07550 | AID 504454 | response, % (no concentration beside the values) | Am2.2-beta2AR cells, FAP receptor internalization, flow cytometry; reference of the scale not given here;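 active = response above a set limit, near 3 SD of response in nonfluorescent compounds, cut at about 42% in these data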;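 note: stock transfer was 100 nL into about 11 µL; a reference agonist was the positive control; negative values mostly stem from fluorescent compounds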
A1 inh: inhibitors of the anti-apoptotic protein A1, read as caspase activation; MEF A1-2A-BIM cells, Caspase-Glo 3/7 luminescence, 3 h; percent of clofoctol response, vehicle zero; actives 0.066% (n = 330,000); caspase activation, % (concentration not given with the values);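 active = over half of replicate activation scores above 10%, or exactly half above 10 with the replicate mean above 10; inconclusive = replicate mean below 10 yet half the replicates above 10; inactive = over half of replicates below 10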;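 note: wells of about 30 µL received 50 nL stock; many hits fall short of the cut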
LANA-H2A inh: blocks KSHV LANA binding to histone H2A/H2B; inhibition, % (no concentration beside the values); cell-free LANA-H2A/H2B peptide, fluorescence polarization; Q9QR71; actives 0.6% (n = 320,000); AID 2629; in the data active = inhibition mostly above about 10%, no sharp cut-off; inactive = mostly below about 6.7%;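 note: stock transfer was 7.5 nL into about 10 µL; 0% = median of vehicle wells and 100% = median of positive control wells; one replicate is shown; the record names a cut of 25% in any replicate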
Target sequence (Q9QR71 whole entry, looked up): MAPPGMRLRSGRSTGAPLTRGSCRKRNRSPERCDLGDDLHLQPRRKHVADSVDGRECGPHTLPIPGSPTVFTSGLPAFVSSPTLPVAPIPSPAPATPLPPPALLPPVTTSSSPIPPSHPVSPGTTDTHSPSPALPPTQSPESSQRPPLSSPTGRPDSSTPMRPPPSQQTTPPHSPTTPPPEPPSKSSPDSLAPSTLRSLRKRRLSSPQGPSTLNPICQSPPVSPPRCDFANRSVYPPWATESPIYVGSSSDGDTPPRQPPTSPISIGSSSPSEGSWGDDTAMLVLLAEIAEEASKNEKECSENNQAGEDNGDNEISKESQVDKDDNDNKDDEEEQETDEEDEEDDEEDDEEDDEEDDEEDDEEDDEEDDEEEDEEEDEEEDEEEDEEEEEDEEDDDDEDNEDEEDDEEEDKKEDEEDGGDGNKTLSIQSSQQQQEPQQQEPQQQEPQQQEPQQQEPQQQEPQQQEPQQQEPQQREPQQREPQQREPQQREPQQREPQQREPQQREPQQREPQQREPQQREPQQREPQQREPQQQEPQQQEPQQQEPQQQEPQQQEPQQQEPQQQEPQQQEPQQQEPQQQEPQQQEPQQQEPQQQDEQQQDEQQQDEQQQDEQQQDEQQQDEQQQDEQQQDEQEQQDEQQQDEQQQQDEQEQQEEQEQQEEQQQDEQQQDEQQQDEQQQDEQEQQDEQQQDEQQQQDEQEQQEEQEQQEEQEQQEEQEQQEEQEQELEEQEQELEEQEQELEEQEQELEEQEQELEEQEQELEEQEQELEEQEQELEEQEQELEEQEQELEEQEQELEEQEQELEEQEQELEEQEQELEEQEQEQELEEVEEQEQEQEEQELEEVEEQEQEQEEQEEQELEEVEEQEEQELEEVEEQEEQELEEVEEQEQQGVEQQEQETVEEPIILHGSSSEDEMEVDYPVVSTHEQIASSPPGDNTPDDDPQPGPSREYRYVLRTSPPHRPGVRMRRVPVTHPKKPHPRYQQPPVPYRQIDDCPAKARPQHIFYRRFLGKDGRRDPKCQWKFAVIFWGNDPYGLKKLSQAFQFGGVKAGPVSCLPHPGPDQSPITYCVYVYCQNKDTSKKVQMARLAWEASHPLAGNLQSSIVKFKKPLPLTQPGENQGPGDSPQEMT
* hit, by the source's call; i = inactive; ? = inconclusive; nt = not tested or not shown; & = joins results of further samples. No enrichment for hits. About 2.1% of those tested had a hit in this group.

SMILES	Vif TR-FRET	E coli growth	HNF4A DNA FP	UCH37 DUB inh	B2AR ag	A1 inh	LANA-H2A inh
O=C(OC(C(=O)Nc1cc(Cl)cc(Cl)c1)c1ccccc1)C1=COCCO1 (stereo unspecified)	-3%	0.7	-1.6	4.2	3	0.9	-1.7
Cc1cc(C)n(CC(=O)Nc2ccc3c(c2)OCO3)c(=O)c1C#N	0%	0.68	-6.2	7.7	-1	0.4	nt
O=C(COC(=O)C1CC2C=CC1C2)Nc1cccc(S(=O)(=O)N2CCOCC2)c1 (stereo unspecified)	-3%	0.71	-1.9	5.9	-5	-0.1	1.3
CCOC(=O)C1C(=O)C=C(c2cccs2)CC1c1ccccc1C (stereo unspecified)	nt	0.69	0.0	0.6	-18	-1.1	-2.2
Cc1ccc(NC(=O)c2ccco2)c(NC(=O)c2ccccc2)c1	nt	0.69	1.1	2.6	0	1.8	1.8
C[C@@H](NC(=O)[C@@H]1Cc2ccccc2CN1C(=O)OC(C)(C)C)C(=O)NCc1ccco1	-2%	0.67	0.0	-0.3	15	0.7	-4.6
Fc1cccc(Cc2noc(CN3CCCCC3CCc3ccccn3)n2)c1 (stereo unspecified)	nt	0.68	1.9	3.7	-12	0.8	2.4
COc1ccc(S(=O)(=O)N(C)CC(=O)NCC2CCCO2)cc1OC (stereo unspecified)	nt	0.67	0.5	0.7	-12	0.4	1.5
Cc1ccc(C(=O)N/N=C\c2ccccc2[N+](=O)[O-])cn1	-2%	nt	-0.2	nt	-3	nt	nt
CC(C)(C)OC(=O)NCc1ccc(NC(=O)c2nc[nH]c2C(=O)NCCCNC(=O)c2[nH]cnc2C(=O)Nc2ccc(CNC(=O)OC(C)(C)C)cc2)cc1	nt	nt	9.4	nt	4	-0.6	0.6
COc1cc(NC(=O)c2cc(-n3cnnc3)ccc2Cl)cc(OC)c1	?	0.8	-4.3	-0.8	2	0.1	0.0
Cc1cc(Nc2nc3ccccc3[nH]c2=O)n(-c2ccccc2)n1	5%	0.71	-2.2	3.9	17	1.0	-3.8
CCOC(=O)N1N=C(c2ccc(OC)cc2)CC1(O)C(F)(F)F (stereo unspecified)	-8%	0.69	-0.9	-0.2	6	-1.4	0.1
CCOc1ccc(NC(=O)CN(C)C(=O)c2ccc3nc(CC)c(CC)nc3c2)cc1OCC	3%	0.7	2.6	0.3	-3	0.4	-2.9
CN(C)Cc1c(O)ccc2occ(C(=O)c3ccccc3)c12	30%	0.68	0.8	6.1	-20	1.1	0.2
COC(=O)COc1ccc(S(=O)(=O)N2CCCCCC2)cc1	3%	0.7	-0.6	3.0	1	-0.2	2.0
CCCC1=C(C(=O)OCC)C(c2ccncc2)n2ncnc2N1 (stereo unspecified)	-2%	0.67	0.7	-0.8	-7	0.1	2.1
CCOC(=O)c1c(NC(=O)CSc2nnc(C)c(=O)[nH]2)sc2c1CCC2	3%	0.72	-0.3	7.7	-3	-0.2	0.0
O=C(c1ccc(F)cc1F)N1CCC(N2CCC(C(=O)N3CCOCC3)CC2)CC1	nt	0.69	5.1	0.0	5	0.2	6.8
S=C1NCCNC(=S)NCCOCCOCCN1	-4%	0.66	4.8	4.3	-6	0.4	-5.4
CCN(CC(=O)Nc1ccc(Cl)c(C(F)(F)F)c1)CC(=O)NC1CCS(=O)(=O)C1 (stereo unspecified)	31%	0.7	-1.3	1.4	0	1.7	-2.2
Cc1ccc(N(CC(=O)NC(C)C)C(=O)CCC(=O)Nc2nccs2)cc1	nt	0.71	-0.5	4.2	12	-0.3	1.8
CCn1nc(C)cc1C(=O)N1CCc2c([nH]c3ccccc23)C1c1cc(F)ccc1F (stereo unspecified)	-13%	0.71	-1.1	6.1	3	-1.6	0.0
Cc1cc(C)n2ncc(C(=O)NCCc3ccccc3)c2n1	?	0.7	1.1	-76	-10	0.7	1.2
COC(=O)c1ccc[n+](CC(=O)Nc2ccc(OC(F)F)cc2)c1	5%	0.67	-0.4	3.3	-1	-0.6	0.4
O=C(O)c1cc(O)ccc1NC(=O)C1CCCO1 (stereo unspecified)	13%	nt	2.4	nt	2	0.4	4.7
Cc1cnc(NC(=O)CSc2nnc(COc3ccccc3)o2)s1	10%	0.72	3.6	3.8	-4	-0.1	4.1
BrC(=C\c1ccccc1)/C=N/N1CCN(c2ccccc2)CC1	13%	nt	5.4	nt	13	-2.9	0.8
COc1ccc(N=Cc2c(O)[nH]c3ccccc23)cc1OC	10%	nt	-1.2	nt	4	-2.9	-2.3
O=C(Nc1cccc(C(=O)NC2CC2)c1)c1ccc(F)c(S(=O)(=O)N2CCOCC2)c1	-2%	0.68	-2.5	-1.1	-1	nt	nt
Cc1[nH]c2ccccc2c1/C=N/Nc1ccc([N+](=O)[O-])cc1S(=O)(=O)Nc1ccc(Cl)cc1	8%&4%	nt	94*	nt	-319	-1.2	2.0
COc1cc([N+](=O)[O-])ccc1NC(=O)CC(C)C	nt	0.7	-0.8	6.6	-3	-2.4	2.0
CCN(CC(=O)Nc1ccc(NC(C)=O)cc1)C(=O)CSCc1c(C)noc1C	5%	0.67	4.3	0.5	-7	0.5	1.2
CC1=C(C(=O)Nc2ccccc2C)C2(CCCCC2)C(C(N)=O)C(=S)N1 (stereo unspecified)	nt	0.68	0.2	8.1	-1	0.1	1.0
O=C(c1ccco1)n1nc(-c2ccco2)nc1SCc1ccccc1	18%	0.75	-1.0	2.6	0	0.3	2.6
COc1ccc(/C=C2\SC(=O)N(CC(=O)Nc3ccc(O)cc3)C2=O)cc1OC	-4%	0.66	-3.8	-155	1	-0.4	2.4
Cc1cc(C)cc(C(=O)NCC(=O)OCC(=O)c2c(N)n(C)c(=O)n(C)c2=O)c1	-2%	0.68	3.2	-0.4	0	-0.7	-3.2
C(=C\c1cccc2ccccc12)/c1nnc(-c2cccs2)o1	-1%	0.7	0.3	i	-4	1.3	1.8
CCOC(=O)c1cccc(NC(=O)C2(S(=O)(=O)c3ccc(Cl)cc3)CC2)c1	-7%	0.67	-3.5	0.3	-11	-0.7	14
CC(C)N1CCC(=NNC(=O)c2cccs2)CC1	nt	0.69	2.4	2.6	3	1.0	-1.8
CC1(C)CC(=O)C2=C(C1)N(c1ccc(Cl)cc1)C(=O)C2(O)C(F)(F)F (stereo unspecified)	2%	0.69	-3.0	2.2	-1	-0.5	5.5
Cc1ccc(C)c(N2CCN(C(=O)CCc3nc(-c4ccc(F)cc4)no3)CC2)c1	nt	0.7	3.3	-0.9	2	nt	nt
COc1ccc(-n2nc(C(=O)NCC(=O)NC(C)C)c3ccccc3c2=O)cc1OC	-1%	0.68	1.1	0.2	-1	-0.9	-8.9
CC#CC[N+](C)(C)CCCCCCCCCC	-3%	0.65	-0.2	3.1	-8	0.1	-4.1
CCOc1ccccc1NC(=O)CSc1nnc(-c2ccccn2)n1Cc1ccco1	-1%	0.67	0.5	2.8	-5	0.4	-3.2

Two entries from above, as labelled records:
> Cc1ccc(C)c(N2CCN(C(=O)CCc3nc(-c4ccc(F)cc4)no3)CC2)c1
  Vif TR-FRET: nt
  E coli growth: 0.7
  HNF4A DNA FP: 3.3
  UCH37 DUB inh: -0.9
  B2AR ag: 2
  A1 inh: nt
  LANA-H2A inh: nt
> COc1ccc(-n2nc(C(=O)NCC(=O)NC(C)C)c3ccccc3c2=O)cc1OC
  Vif TR-FRET: -1%
  E coli growth: 0.68
  HNF4A DNA FP: 1.1
  UCH37 DUB inh: 0.2
  B2AR ag: -1
  A1 inh: -0.9
  LANA-H2A inh: -8.9

(more compounds)
SMILES	Vif TR-FRET	E coli growth	HNF4A DNA FP	UCH37 DUB inh	B2AR ag	A1 inh	LANA-H2A inh
CC1=C(C(=O)OCc2ccccc2)C(c2ccc(-c3ccccc3)cc2)NC(=O)N1CCCCCC(=O)O (stereo unspecified)	-2%	0.69	-7.7	2.1	-6	0.0	2.4
CC12CC3CC(C)(C1)CC(C(=O)N1CCN(C(=O)c4ccco4)CC1)(C3)C2	nt	nt	0.4	nt	-3	-0.2	1.6
CC(C)c1ccc(C(=O)NCCCN(C)C)cc1	?	0.73	1.1	1.7	5	-0.6	-4.0
COCCn1c(SCCCc2ccccc2)nc2c1c(=O)[nH]c(=O)n2C	-3%	0.8	-0.7	3.3	1	0.5	-1.7
COC(=O)c1ccccc1NC(=O)CSc1nnc(C(CO)NC(=O)c2ccccc2)n1C (stereo unspecified)	8%	0.63	-1.2	0.7	-2	-0.3	6.4
N#C/C(=C\c1ccc(O)cc1)C(=O)N1CCCC1	-4%	0.67	-0.4	0.8	4	-0.8	2.0
NC(Cc1ccc(Oc2ccc(O)cc2)cc1)C(=O)O (stereo unspecified)	4%	0.69	nt	-1.7	nt	-1.0	-6.8
S=C1Cc2ccccc2C(c2ccc(Cl)cc2)N1 (stereo unspecified)	1%	0.68	5.4	0.4	-5	1.0	-12
COc1ccc(CNC(=O)COC(=O)CN2C(=O)COc3ccccc32)cc1	-2%	0.69	0.6	-1.4	-4	2.2	3.1
CCc1nnc(NC(=O)CSc2nnc(-c3ccccc3O)n2-c2ccc(C)cc2C)s1	-2%	0.76	0.6	1.2	-11	0.8	-2.7
COc1ccc(NC(=O)C2CCN(C(=O)c3ccc(OC)cc3)CC2)cc1	3%	0.7	-2.2	0.7	1	0.2	-45
COc1ccc(N2C(=O)C(F)(F)C2c2ccc(C)cc2)cc1OC (stereo unspecified)	1%	0.71	0.6	0.7	9	1.1	2.7
CC1(C)CC2CC(C)(CN2C(=O)COC(=O)c2cc(Cl)cc(Cl)c2N)C1 (stereo unspecified)	-9%	0.68	3.1	-87	-6	-0.7	-2.6
O=C1CC(=O)C(n2cncn2)C(c2ccc(Cl)cc2Cl)C1 (stereo unspecified)	10%	0.71	0.7	0.5	14	nt	-0.6
CC(Oc1cccc(Cl)c1)C(=O)NNC(=O)c1cccnc1 (stereo unspecified)	-5%	0.73	0.1	1.4	-2	-0.2	-1.4

Single records (already shown).
Shown for Cc1cc(C)n(CC(=O)Nc2ccc3c(c2)OCO3)c(=O)c1C#N → Vif TR-FRET = 0%; E coli growth = 0.68; HNF4A DNA FP = -6.2; UCH37 DUB inh = 7.7; B2AR ag = -1; A1 inh = 0.4; LANA-H2A inh = nt
Shown for N#C/C(=C\c1ccc(O)cc1)C(=O)N1CCCC1 → Vif TR-FRET = -4%; E coli growth = 0.67; HNF4A DNA FP = -0.4; UCH37 DUB inh = 0.8; B2AR ag = 4; A1 inh = -0.8; LANA-H2A inh = 2.0

(further entries)
SMILES	Vif TR-FRET	E coli growth	HNF4A DNA FP	UCH37 DUB inh	B2AR ag	A1 inh	LANA-H2A inh
CCCc1cc(=O)[nH]c(SCC(=O)c2cc(C)n(C(C)COC)c2C)n1 (stereo unspecified)	1%&1%	0.66	0.5	1.3	2	0.2	-1.1
Cc1ccc(NC(=O)c2sc3nc(C)nc(N4CCN(c5ccccn5)CC4)c3c2C)c(C)c1	nt	0.72	-3.3	2.4	3	0.9	-1.0
CC1(c2nnc(-c3ccc(Cl)cc3)o2)CC(c2ccncc2)=NO1 (stereo unspecified)	nt	0.65	-1.1	1.3	-5	1.0	-7.1
COC(=O)c1c(C)[nH]c(C(=O)C(C)OC(=O)C2=NNC(=O)CC2)c1C (stereo unspecified)	23%	0.68	2.8	-1.7	-2	-0.5	1.0
COc1cc(C(=O)N/N=C/c2cccc(Oc3ccccc3)c2)ccc1O	nt	nt	3.5	nt	-14	-0.2	3.9
C=CCn1c(=O)[nH]c2cc(C(=O)N3CCN(c4cc(C)ccc4C)CC3)ccc2c1=O	-1%	0.68	2.7	1.9	4	-0.7	-0.1
COc1ccc(S(=O)(=O)N2CCCCCC2)cc1C(=O)N1CCN(c2ccccc2O)CC1	-1%	0.7	2.6	1.5	3	1.0	-3.5

Screening results as filed in PubChem BioAssay.
